CBX7 AlphaScr: inhibitors of human CBX7 binding to H3K27me3 peptide; AlphaScreen His6-CBX7 / biotin-H3K27me3 peptide binding; stronger effect = lower value; normalised signal (fraction of DMSO) (concentration not given with the values); actives 1.1% (n = 66,000); AID 1224903; in the data active = normalised signal below about 0.5;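 note: 100 nL library stock added to about 20 µL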
Target sequence (O95931 whole entry, looked up): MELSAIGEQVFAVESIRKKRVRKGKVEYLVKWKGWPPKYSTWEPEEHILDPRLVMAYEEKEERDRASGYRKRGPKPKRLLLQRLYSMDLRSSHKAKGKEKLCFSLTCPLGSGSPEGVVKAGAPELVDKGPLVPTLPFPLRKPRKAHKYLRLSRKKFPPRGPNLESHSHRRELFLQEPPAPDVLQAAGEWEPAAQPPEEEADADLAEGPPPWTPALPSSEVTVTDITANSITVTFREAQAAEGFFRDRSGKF
CBX7 AlphaScr z-score: also measured in CBX7 AlphaScr; calls as there; z-score; measured here: z-score of CBX7 signal; some inactives read as strong as hits; reference of the scale not given here;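 same signal on another scale; lower means less binding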
Active calls of the source: *; & = joins results of further samples.

| Compound | CBX7 AlphaScr | CBX7 AlphaScr z-score |
| --- | --- | --- |
| Cc1ccc(CNC(=O)c2cnn3c(C)c(Cc4ccccc4Cl)c(C)nc23)cc1 | 0.988 | -0.327 |
| CC(C)(C)c1ccc(OCCn2c(=N)n(CC(N)=O)c3ccccc32)cc1 | 0.943 | -1.72 |
| CC(C)NC(=O)C1CCN(C(=O)c2cnn(-c3ccccc3)c2-n2cccc2)CC1 | 0.911 | -0.204 |
| CC1CCCN(C(C(=O)NC2CCCCC2)c2ccccc2)C1 (centres undefined) | 0.783 | -5.42 |
| CC(C)c1ccc(OCC(=O)Nc2cccc(-c3nc4ncccc4o3)c2)cc1 | 1.02 | 0.929 |
| COc1ccc(C2NC(=O)c3c(sc4c3CCCC4)N2)cc1 (centres undefined) | 0.876 | -2.12 |
| O=C(CSc1nc(-c2ccccc2)[nH]c1-c1ccccc1)Nc1ccc2c(c1)OCO2 | 0.8 | -9.52 |
| O=C(NCc1ccccc1)c1ccc2c(c1)N(Cc1ccc(Cl)cc1)C(=O)c1ccccc1S2 | 0.955 | -1.24 |
| COc1ccc(Nc2c(-c3ccc(OC)cc3)nc3nc(C)cc(C)n23)cc1 | 0.798 | -2.22 |
| COc1ccc(NC(=O)Cn2cnc3c(nnn3Cc3ccc(C)cc3)c2=O)cc1OC | 0.854 | -2.4 |
| COc1ccc(C(=O)Nc2ncc(Cc3cc(Cl)ccc3Cl)s2)cc1OC | 1.11 | 0.188 |
| Cc1nc2c(C(=O)NCc3ccc(F)cc3)cnn2c(C)c1Cc1ccc(Cl)cc1 | 0.788 | -1.99 |
| CCOC(CNC(=O)c1ccc2c(c1)N=C(C)c1c(C)ccc(C)c1S2)OCC | 1.15 | 1.98 |
| c1csc(-c2nnc3n2C2(CCCC2)Cc2ccccc2-3)c1 | 0.979 | -0.596 |
| O=C(Cc1c(C(=O)O)[nH]c2ccccc12)NCC1COc2ccccc2O1 (centres undefined) | 1.04 | 1.04 |
| CCCc1cc(C(=O)Nc2ccc(OC(F)(F)F)cc2)no1 | 1.03 | 0.899 |
| Cc1c(C(=O)Nc2cccc(Cl)c2)sc2ncn(Cc3ccccc3Cl)c(=O)c12 | 1.06 | 0.429 |
| Cc1ccc(N2C(=O)CC(NCCc3ccc(Cl)cc3)C2=O)cc1Cl (centres undefined) | 1.04&0.974 | 2.06&-0.715 |
| O=C(Nc1cccc(Cl)c1)c1scc2c1OCCO2 | 0.917 | -0.233 |
| O=C1C2C3C=CC(CO)(O3)C2C(=O)N1c1ccccc1 (centres undefined) | 0.947 | -0.603 |
| CCOc1ccccc1NC(=O)c1c(NCc2cccc(OC)c2)sc2c1CCC2 | 1.01 | 0.649 |
| O=S(=O)(c1ccc(Cl)cc1)c1nc(-c2cccs2)oc1SCc1ccccc1Cl | 0.924 | -0.133 |
| COc1ccc(C(=O)Nc2ccc3oc(-c4ccc(C(C)(C)C)cc4)nc3c2)cc1OC | 0.993 | -0.14 |
| c1ccc2c(NCC3CCCO3)nc(SCc3ccncc3)nc2c1 (centres undefined) | 0.905 | -0.265 |
| COCCn1c(COc2ccccc2)nc2ccccc21 | 0.961 | -0.461 |
| CCN(CC)S(=O)(=O)c1ccc(-c2csc(Nc3cccc(OC)c3)n2)cc1 | 0.804 | -5.5 |
| Cc1ccc(S(=O)(=O)Nc2c(C)nc3nc[nH]n3c2=O)cc1C | 1.03 | 1.06 |
| C=C(C)Cn1c(CCCNC(=O)c2cccc(C)c2)nc2ccccc21 | 1.1 | 1.8 |
| Cc1ccccc1CN1C(=O)C(O)(c2c[nH]c3ccccc23)c2ccccc21 (centres undefined) | 0.549 | -0.507 |
| Cc1ccc(S(=O)(=O)N=C(Nc2nc(C)cc(C)n2)N2CCc3ccccc32)cc1 | 1.02 | 0.66 |
| Cc1ccc(NC(=O)CSc2nnc(Cc3cc(=O)[nH]c(=O)[nH]3)n2-c2ccc(Cl)cc2)cc1 | 0.984 | -0.416 |
| COc1ccc(-c2noc(COc3ccc(C(C)(C)C)cc3)n2)cc1OC | 1.06 | 0.261 |
| N#Cc1nc(COc2ccccc2F)oc1N1CCCCCC1 | 0.561 | -2.74 |
| Cc1cc2nc(-c3cccc(NC(=O)c4oc5ccccc5c4C)c3)oc2cc1C | 1.05 | 1.27 |
| Cc1ccc(COC(=O)c2nonc2N)c(C)c1 | 0.931 | -0.826 |
| Cc1ccc(CN(Cc2cccnc2)C(=O)Nc2ccc(C)c(C)c2)cc1 | 0.734 | -0.264 |
| Cc1ccc(Nc2[nH]c(=O)c3ccccc3c2C(=O)c2ccccc2)cc1 | 1.05 | 0.63 |
| O=C1c2ccccc2C(Nc2ccccc2)N1c1ccc(Cl)cc1 (centres undefined) | 0.787 | -5.77 |
| CCCSc1nc(N2CCOCC2)c2c(c1C#N)CC(C)(C)OC2 | 1.11 | 1.26 |
| O=C(Nc1ccc(-c2noc(-c3ccc(F)cc3)n2)cc1)c1cccs1 | 1.01 | 0.13 |
| COc1cccc(-n2c(Cc3cc(=O)[nH]c(=O)[nH]3)nnc2SCc2cccnc2)c1 | 1.02 | 0.343 |
| COCCn1c(=O)[nH]c2cc(C(=O)N3CCN(c4ccccn4)CC3)ccc2c1=O | 1.04 | 1.53 |
| Cc1ccc2c(c1)C(c1ccc(F)cc1)N(C(=O)c1c(F)cccc1F)CC(=O)N2 (centres undefined) | 0.794 | -3.75 |
| COCCCNC(=O)CNC(=O)c1nn(-c2ccc(OC)c(OC)c2)c(=O)c2ccccc12 | 0.93 | -1.36 |
| O=c1[nH]c(CN2CCCCC2)nc2c1oc1ccccc12 | 0.816 | -2.2 |
| Cn1c(C(=O)N2CCC(C(=O)N3CCN(Cc4ccccc4)CC3)CC2)cc2sccc21 | 0.909 | -1.63 |
| COc1ccc(Cl)cc1C(=O)Nc1ccc(-c2nc3ncccc3o2)cc1 | 1.12 | 2.15 |
| COc1ccc(CNC(=O)CN2C(=O)COc3ccc(C(C)(C)C)cc32)c(OC)c1 | 0.663 | -6.68 |

Complete entries, looked up by structure.
O=c1[nH]c(CN2CCCCC2)nc2c1oc1ccccc12 is listed as CBX7 AlphaScr: 0.816; CBX7 AlphaScr z-score: -2.2
COCCCNC(=O)CNC(=O)c1nn(-c2ccc(OC)c(OC)c2)c(=O)c2ccccc12 is listed as CBX7 AlphaScr: 0.93; CBX7 AlphaScr z-score: -1.36

New compounds follow:
| Compound | CBX7 AlphaScr | CBX7 AlphaScr z-score |
| --- | --- | --- |
| Cc1ccc(-c2nnc(Nc3ccc(S(N)(=O)=O)cc3)c3ccccc23)cc1S(N)(=O)=O | 1.01 | 0.112 |
| O=C(NCCN1CCOCC1)c1nn2c(C(F)(F)F)cc(-c3ccccc3)nc2c1Cl | 1.06 | 0.388 |
| CCCn1c(C(Cc2ccccc2)NC(=O)C(C)(C)C)nc2ccccc21 (centres undefined) | 1.07 | 0.515 |
| CCC(=O)N1CCc2cc(S(=O)(=O)CCC(=O)O)ccc21 | 1 | 0.117 |
| COc1ccc(OC)c(CNC(=O)c2cc(=O)[nH]c3ccccc23)c1 | 1.04 | 1.72 |
| COc1ccccc1-c1c(C)nn2c(NCCCN3CCCC(C)C3)cc(C)nc12 (centres undefined) | 1.03 | 0.853 |
| CCc1cccc(NC(=O)CCc2c(C)nc3cc(-c4cccc(F)c4)nn3c2C)c1 | 0.943 | -0.37 |
| Cc1nc2c(cnn2-c2ccccc2)c(=O)n1-c1ccc(Cl)cc1 | 1.04 | 1.71 |
| CCc1ccccc1NC(=O)Cn1ncc2c1-c1cc(C)ccc1OC2 | 0.942 | -1.09 |
| COc1ccccc1N1CCN(c2cc(=O)n(-c3ccccc3Cl)c(=O)[nH]2)CC1 | 1.09 | 1.71 |
| Cc1cccc(NC(=O)c2c(-c3ccccc3Cl)noc2C)n1 | 1.07 | 1.64 |
| COc1ccc(Cc2nnc(SCC(=O)Nc3ccc(F)cc3)o2)cc1 | 0.922 | -0.892 |
| Clc1ccccc1CCNc1ncnc2ccccc12 | 1.04 | 1.32 |
| CC1CCCCN1S(=O)(=O)c1ccc2c(c1)CCN2C(=O)C1CCC1 (centres undefined) | 0.935 | -2.18 |
| CCCCNS(=O)(=O)c1cc(-c2n[nH]c(=O)c3ccccc23)ccc1C | 1.02 | 0.616 |
| O=C1c2ccccc2C(Nc2cccc(C(F)(F)F)c2)N1c1ccccn1 (centres undefined) | 1.02 | 0.64 |
| CC1(C)CC(=O)N(CC(=O)NCCc2ccccc2)c2ccccc2S1(=O)=O | 1.09 | 2.61 |
| CC(C)CCN1C(=O)Cn2cccc2C1C(=O)NC1CCCCC1 (centres undefined) | 1.01 | 0.205 |
| Cc1ccc(NC(=O)Cn2cnc3sc(C(=O)Nc4cccc(C)c4C)c(C)c3c2=O)cc1Cl | 1.02 | 0.764 |
| O=C(CSc1nc(-c2ccccc2)[nH]c1-c1ccc(Cl)cc1)Nc1nccs1 | 0.985 | -0.392 |
| CCc1nnc(NC(=O)COc2ccc(C)cc2)s1 | 1.16 | 0.46 |
| Cc1ccc(N(C)S(=O)(=O)c2ccc3[nH]cc(C(=O)N4CCC(C)CC4)c(=O)c3c2)cc1C | 1.09 | 0.832 |
| COc1ccc(S(=O)(=O)N2CC=C(C(=O)NC3CCC(C)CC3)CC2)cc1 (centres undefined) | 1.03 | 1.62 |
| Cc1ccc(C(C)C)c(OCC(O)CN2CCN(c3ccc(F)cc3)CC2)c1 (centres undefined) | 0.883 | -0.889 |
| COc1ccc(N(Cc2nnc3n2CCCCC3)C(=O)Nc2cccc(Cl)c2)cc1 | 0.993 | -0.127 |
| CCc1ccc(OCC(O)CN2CCC(C)CC2)cc1 (centres undefined) | 1.06 | 0.364 |
| CC(C)CCNC(=O)c1ccc2c(c1)N(Cc1cccc(F)c1)C(=O)c1ccccc1S2 | 1.02 | 0.453 |
| O=C(Cn1nc(-c2ccccc2)c2ccccc2c1=O)N1CCOCC1 | 1.05 | 1.71 |
| COc1ccc(CNC(=O)CN2CCN(Cc3cccc(C)c3)C2=O)cc1 | 0.963 | -0.757 |
| Cc1cccc(-n2nc3c(c2NC(=O)c2ccc(OC(C)C)cc2)CSC3)c1C | 1.05 | 0.785 |
| Cc1cc(O)cc(O)c1-c1n[nH]c(C)c1Oc1ccccc1 | 0.895 | -1.62 |
| CCCCN(CCCC)S(=O)(=O)c1ccc2oc(C(=O)N3CCCCC3)c(C)c2c1 | 0.811 | -2.03 |
| COC(=O)c1ccc(NC(=O)C2(S(=O)(=O)c3ccc(C)cc3)CC2)cc1 | 1.12 | 1.55 |
| O=C(C1CCN(S(=O)(=O)c2cccnc2)CC1)N(CCc1ccccc1)Cc1ccccc1 | 0.955 | -1.19 |
| CCn1c2c(c3cc(Br)ccc31)CCCC2=O | 0.862 | -2.18 |
| COc1ccc(-c2nnc(-c3cccnc3)o2)cc1OC | 0.856 | -1.92 |
| Cc1ccccc1-c1nc(CN2CCC(C(=O)NCC3CCCO3)CC2)c(C)o1 (centres undefined) | 0.833 | -0.227 |
| CCOc1ccc(CCNC(=O)C2CCCN(c3nnc(-n4cccc4)s3)C2)cc1OCC (centres undefined) | 1.06 | 1.41 |
| CCOCCCNC(=O)c1ccc2c(c1)ncn2-c1ccc(C(C)C)cc1 | 1.08 | 1.87 |
| CCOc1ccc2nc(N3CCCC(C(=O)Nc4ccccc4C)C3)sc2c1 (centres undefined) | 1.01 | 0.2 |
| O=C(CN1C(=O)CC(c2ccccc2)Sc2ccccc21)Nc1ccccc1 (centres undefined) | 1.09 | 1.48 |
| O=C(NCc1ccc2c(c1)OCO2)C1CCCN1S(=O)(=O)c1cccc2cccnc12 (centres undefined) | 0.912 | -2.96 |
| Cc1nc(N(C)Cc2ccccc2)c2cc(C)sc2n1 | 1.04 | 2.01 |
| CCOc1ccc(-c2cn3nc(-c4ccc(Br)cc4)n4c3c2CCCC4)cc1 | 0.831 | -0.734 |
| Cc1ccccc1Cn1c(=O)n(CCC(=O)NCc2ccccc2)c(=O)c2sccc21 | 1.01 | 0.185 |
| CCCCNC(=O)c1cn(C)c(=O)c2cc(OC)c(OC)cc12 | 1.05 | 1.65 |
| O=C(c1cc(-c2ccc(O)cc2)on1)N1CCCc2ccccc21 | 0.983 | -0.704 |
| COc1ccc(OC)c2[nH]c(=O)c(CCNC(=O)CCc3ccccc3)cc12 | 1.02 | 0.809 |
| CC(C)CCNC(=O)C1CCN(S(=O)(=O)c2ccc3nc4c(c(C(=O)O)c3c2)CCCC4)CC1 | 1 | -0.00434 |
| O=C(Nc1cccc(-c2nc3cc(Cl)ccc3o2)c1)c1cc2ccccc2o1 | 0.985 | -0.366 |
| CN(C)c1cccc(C(=O)N2CCNc3ccccc3C2)c1 | 1.15 | 1.84 |
| CC(C)CCNC(=O)Cn1nc(-c2ccccc2)c2cc(Cl)ccc21 | 1.03 | 1.13 |
| COCCCNC(=O)c1sc2nc(C)nc(N3CCN(c4ccccn4)CC3)c2c1C | 0.977 | -0.649 |
| CN(CC(=O)O)S(=O)(=O)c1cccc2cccnc12 | 1.03 | 0.74 |
| Cc1cc(-c2ccccc2)n(-c2cc(N3CCN(c4ccccc4)CC3)ncn2)n1 | 0.525 | -2.98 |
| CC1(C(=O)NCc2cccnc2)CC2c3ccccc3C1c1ccccc12 (centres undefined) | 1.08 | 1.87 |
| Cc1ccc(NC(=O)c2cnc(Nc3ccc(C)c(Cl)c3)c3ccccc23)cc1F | 1.36 | 10.2 |
| CN(CCNc1ccc2nnc(-c3ccc(F)cc3)n2n1)C1CCCCC1 | 1.05 | 0.638 |
| Cc1ccc(-c2n[nH]c(=O)c3ccccc23)cc1S(=O)(=O)Nc1ccc(OCC(N)=O)cc1 | 1 | 0.0545 |

Compound activity as filed in PubChem BioAssay.

A portion of the library (hit frequency here may not be typical).
